PABP polyA inh: PABP poly(A) RNA binding inhibitors, primary screen, biochemical, fluorescence polarization, uHTS. Polyadenylate-binding protein 1 (Homo sapiens), P11940. inhibition, % at 35 µM. hit rate 1% among 290,000. AID 2014, 2009;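 active means 50% or more with normal probe brightness, or confirmed in later tests; inconclusive means above 50% with abnormal brightness, or retests that disagree; inactive means below 50% or failed in later tests; about a fifth of its hits are not listed in these tables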;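 further: calls also rest on retests at 20 µM and on dose response follow-up; controls were probe without protein and protein plus probe with vehicle; some compounds called inactive have numbers as strong as hits; many hits fall short of the cut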
CSC inhib: cancer stem cell viability inhibitors, primary screen, luminescence | cancer stem cell-like cells viability | hit rate 1.1% among 300,000 | inhibition, % at 7.5 µM | AID 2717, 2010;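 active means mean at 75% or more and at least half the replicates too; inconclusive means mean and replicates disagree; tested in HMLE shEcad cells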;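 further: 0% = median of negative and 100% = median of positive control wells; the first replicate is given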
MT1-MMP act inh: blockers of MT1-MMP proenzyme processing, primary screen, HT1080 RFP-PRO-GFP cells, GFP/RFP fluorescence; GFP/RFP ratio fluorescence, overnight; percent of plate control window, DMSO zero; GFP/RFP ratio change, % at 20 µM; hit rate 0.061% among 360,000; Matrix metalloproteinase-14 (Homo sapiens), P50281;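 active means GFP/RFP ratio change of at least 30% with cell ATP level not reduced by more than half and red fluorescence within 50% of control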; further: strong numbers were not always called active
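Material: RFP-PRO-GFP reporter HT1080 cells. Dosing: single-point 20 µM compound, 1% DMSO. Controls: DMSO and RFP-L50D-GFP cell wells. Timing: cells overnight before dosing, compound overnight, 37 °C, 5% CO2. Measure: GFP/RFP fluorescence ratio.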
Env fusion inh: inhibitors of HIV-1 Env-driven cell-cell fusion, primary screen, HeLa-JRFL effector, CEM21 target cells, luciferase; inhibition, % at 12.3 µM; hit rate 1.1% among 360,000; AID 651610, 2012;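 active means mean replicate inhibition score of at least 50 and every replicate individually at or above 50; inconclusive means only one of the two criteria met; inactive means mean below 50 and not all replicates reaching 50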;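 further: 0% = plate neutral controls and 100% = maraviroc near 300 nM; one replicate is shown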
eIF4H FP inh: human eIF4H binding inhibitors, primary screen, translation initiation inhibitor project, biochemical, uHTS, fluorescence polarization; Eukaryotic translation initiation factor 4H (Homo sapiens), Q15056; eIF4H fluorescence polarization binding assay; inhibition, % at 35 µM; hit rate 0.94% among 290,000; AID 2012, 2009;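 active means 50% or more with normal probe brightness, or confirmed in later tests; inconclusive means above 50% with abnormal brightness, or retests that disagree; inactive means below 50% or failed in later tests; about a fifth of its hits are not listed in these tables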;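 further: calls also rest on retests at 20 µM and on dose response follow-up; 0% = protein and probe with vehicle and 100% = probe without protein; strong numbers were not always called active; many hits fall short of the cut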
Rce1 inhib: yeast Rce1p protease inhibitors, primary screen, biochemical, fluorescence, cell-free homogeneous | CAAX prenyl protease 2 (Saccharomyces cerevisiae (strain ATCC 204508 / S288c)), Q03530 | yeast membranes, quenched prenylated peptide cleavage fluorescence | calls only | hit rate 0.27% among 290,000 | AID 2563, 2010;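 active means fall in fluorescence gain of 50% or more versus controls, with final raw signal at or below 3038400; inconclusive means same 50% fall but final raw signal above 3038400; inactive means fall in fluorescence gain under 50%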;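 further: plate controls were neutral control wells for no effect and wells lacking membranes for full effect; tested at 10 µM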
Target sequence (Q03530 whole entry, looked up): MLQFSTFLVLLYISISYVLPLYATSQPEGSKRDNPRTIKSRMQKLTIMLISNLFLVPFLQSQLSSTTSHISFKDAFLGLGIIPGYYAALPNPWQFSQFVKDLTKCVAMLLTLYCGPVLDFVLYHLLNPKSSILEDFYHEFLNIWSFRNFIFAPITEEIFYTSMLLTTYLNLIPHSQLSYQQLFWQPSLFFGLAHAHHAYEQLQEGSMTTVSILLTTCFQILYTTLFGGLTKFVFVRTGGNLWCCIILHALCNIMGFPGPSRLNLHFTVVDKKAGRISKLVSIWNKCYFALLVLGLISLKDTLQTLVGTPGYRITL
Yeast UUG start: modulators of yeast start codon fidelity, primary screen, whole organism, S. cerevisiae, single point, plate reader; S. cerevisiae UUG-firefly luciferase reporter, luminescence/redox ratio; activity score, % at 18.7 µM; hit rate 0.13% among 350,000; AID 602363, 2012;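 active means replicate mean at a twofold rise or more, about +100% in these data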;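 further: firefly luciferase made from a UUG start codon reports start codon fidelity; reporter light over untreated wells divided by growth signal over untreated wells; some hits fall short of that in this replicate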
MT1-MMP act inh RFP: recorded beside MT1-MMP act inh, whose call it bears; RFP signal change, %; measured here: RFP expression control read;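 0 = vehicle wells; hits needed this value within 50% of zero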
Numbers without * were called inactive; i = inactive; u = inconclusive; x = no result given; + = active, no number; & = joins results of further samples.

SMILES	PABP polyA inh	CSC inhib	MT1-MMP act inh	MT1-MMP act inh RFP	Env fusion inh	eIF4H FP inh	Rce1 inhib	Yeast UUG start
O=C(Cc1ccc(Cl)cc1)NCCS(=O)c1ccc(Cl)cc1 (stereo unspecified)	8	-17	2	0	x	-4	i	6
O=C(CNC(=O)c1ccc(Cl)cc1Cl)OCC(=O)N1CCCC1=O	x	-12	2	3	6	x	i	x
CCOC(=O)N1CCN(C(=O)CSc2nc3c([nH]c4ccccc43)c(=O)n2CC)CC1	-12	4	-7	-5	25	-8	i	3
CC(=O)OCC1=C(C(=O)O)N2C(=O)C(NC(=O)c3ccc(COc4ccc(Cl)cc4)o3)C2SC1 (stereo unspecified)	-1	6	-5	-1	19	21	i	x
CCOC(=O)c1sc(NS(=O)(=O)c2ccc(C)cc2)nc1C	6	-5	3	3	8	6	i	1
CCN1CCCC1CNS(=O)(=O)c1c(C)cc(C)cc1C (stereo unspecified)	7	-19	-4	0	-4	0	i	-10
O=C(Nc1ccc(C(=O)N2CCOCC2)cc1)Nc1cccc(C(F)(F)F)c1	-7	1	-9	-10	45	3	i	-1
CCOc1ccc(OCC)c(NC(=O)CN2CCC(NC(=O)c3cccc(F)c3)CC2)c1	11	x	10	-13	44	-1	i	0
O=C(CSc1nnc(Cc2ccccc2)o1)N1CCCc2ccccc21	-2	-13	1	5	-35	-4	i	-28
Cc1ccc(-n2c3c(cc(C(=O)NC4CCSC4=O)c2=O)C(=O)CC(C)(C)C3)cc1 (stereo unspecified)	-10	4	-3	-1	x	-15	i	8
Cc1ccc(C2c3c(oc4cc(C)c(C)cc4c3=O)C(=O)N2CCCN2CCOCC2)cc1 (stereo unspecified)	-2	-11	0	0	-17	-4	i	3
Cc1ccc(-c2nnn(CC(=O)N(c3ccccc3)C(C(=O)NC3CCCC3)c3ccncc3)n2)o1 (stereo unspecified)	-4	-16	-1	1	-7	7	i	-9
O=C(NCC1CCCO1)c1cccc(S(=O)(=O)Nc2cccc(C(F)(F)F)c2)c1 (stereo unspecified)	x	-4	2	-10	6	x	x	-7
COc1ccc(CCNC(=O)C2CCN(S(=O)(=O)c3ccc4c(c3)oc(=O)n4C)CC2)cc1OC	8	5	0	2	-14	11	i	-2
CSc1ccccc1NC(=O)CSc1nnc(COc2ccccc2)o1	-1	-17	0	1	-2	-13	x	-9
NC(=O)c1sc2nc3c(c(-c4cccs4)c2c1N)CCCCC3	10	-7	-20	-19	126*	-5	i	-24
Cc1ccc(N2C(=O)[C@@H]3[C@H](C2=O)[C@H]2C=CC=NN2[C@@H]3C(=O)Nc2ccccc2)cc1	3	-8	-3	8	-3	-4	i	x
O=C(NCc1cccnc1)C1CCN(S(=O)(=O)c2cccnc2)CC1	9	10	6	8	x	0	i	-4
CCCCNc1nccnc1-c1cccc(C=O)c1	x	x	-1	4	12	x	x	-16
O=C(O)c1cccc(NS(=O)(=O)c2ccc3c(c2)C(=O)c2ccccc2C3=O)c1	18	4	4	2	3	-8	i	x
COc1ccc(S(=O)(=O)NN(C)C)cc1N(C)S(=O)(=O)c1ccc(Cl)cc1	-1	x	0	8	x	1	i	-17
CCOc1ccc2ccccc2c1/C=N/NC(=O)c1ccc(C)nc1	-1	-3	-4	-1	-4	-5	i	-14
COc1ccccc1CN(C)C(=O)c1cnc(C)cn1	2	-9	5	6	-12	-3	i	-1
Cc1ccc(C(=O)Nc2ccc3nccnc3c2)cc1	-6	4	-3	-2	x	-8	i	-37
O=C(Cc1ccc(F)cc1)Nc1nnc(SCC(=O)N2CCCCC2)s1	-14	u	2	3	12	-2	i	x
CCOC(=O)C1(Cc2cccc(OC)c2)CCN(Cc2ccc(OC)c(OC)c2)CC1	-6	-6	-5	-7	-15	-1	i	2
OC(CNCC1CCCO1)COc1ccc(OCC(O)CNCC2CCCO2)cc1 (stereo unspecified)	-4	16	4	4	x	-4	i	3
CC(=O)NC(Cc1ccccc1)C(=O)NC(Cc1ccccc1)C(=O)O (stereo unspecified)	-1	-5	0	4	-5	-1	i	x
COc1cc(Cl)c(C)cc1NC(=O)CN1CCN(C(=O)c2cccs2)CC1	x	x	-2	-4	13	x	x	-20
Cc1ccc(NC(=S)NNC(=O)CCn2cc(C)cn2)cc1	-3	-14	2	2	9	-4	i	-7
CN(C)c1ccc(C2OC(=O)C3(CCCC3)C(=O)C2(C)C)cc1 (stereo unspecified)	4	-9	2	-3	17	-5	i	-15
COc1ccc2c(CN3CCN(c4ccccc4OC)CC3)cc(=O)oc2c1	x	x	3	-2	14	x	x	5
COc1cc(/C=N\NS(=O)(=O)c2ccccc2)cc(OC)c1OC	-8	0	0	1	5	-7	i	-18
O=[N+]([O-])c1cc(/C=N/O)ccc1SCc1ccccc1Cl	-1	-14	3	-3	-143	-8	i	-13
O=C(CSC1CS(=O)(=O)c2cc([N+](=O)[O-])ccc21)NNC(=O)c1ccccc1 (stereo unspecified)	6	12	-3	-2	-4	-8	i	-12
O=[N+]([O-])c1ccccc1S(=O)(=O)NCc1ccco1	-12	-6	1	2	6	-8	i	x
O=C(NCCc1ccc2c(c1)OCCO2)c1cc(S(=O)(=O)N2CCCC2)ccc1Cl	x	x	-1	0	7	x	x	-8
C=CCn1c(N2CCCCCC2)nc2c1c(=O)n(C)c(=O)n2C	-10	2	2	-1	x	0	+	-2
CN(C(=O)c1cccc(NC(=O)Cc2ccc(NC(=O)C3CCCN(C(=O)C4CC4)C3)cc2)c1)C1CCCCC1 (stereo unspecified)	x	x	0	0	-22	x	x	-19
O=C(OCC(O)COC(=O)c1cccnc1)c1cccnc1	7	-2	1	2	9	5	i	-5
CN1CCN(C(=O)c2cc3c(C(F)(F)F)nn(C)c3s2)CC1	-8	-13	1	3	x	-7	i	x
Cc1nc(SCC(N)=O)c([N+](=O)[O-])[nH]1	-5	-17	1	1	7	-12	i	-13
COC(=O)c1ccc(CNC(=O)COC(=O)COc2ccc(OC)cc2)cc1	41	-5	1	0	-8	-15	i	x
CN(C)CCC(c1ccccc1)c1ccccn1 (stereo unspecified)	-2	-10&-5	0&-3&-1	5&-3&3	-14&20&19	0	i	-4&-3&-14
CCCN(C(=O)CSc1nnnn1-c1ccccc1OC)C1CCS(=O)(=O)C1 (stereo unspecified)	-3	-3	0	4	x	-10	i	-10
COc1cc2cc(CCCO)oc(=O)c2cc1OC	x	-1	3	-3	-95	x	x	11
Cc1ccc(S(=O)(=O)N(C)c2ccc(C(=O)Nc3ccc(C)cn3)cc2)cc1	x	-1	-10	-20	19	x	i	x
C1=C(c2sc3ccccc3c2-c2ccc(OCCN3CCOCC3)cc2)CCCC1	x	88*	-8	-7	31	x	x	-19
Cc1ccc(C(O)c2ncc(-c3ccc(Cl)cc3)[nH]2)cc1F (stereo unspecified)	x	x	6	-4	15	x	x	-22
COc1ccc(OC)c(NC(=O)CSc2nnc3ccc(-c4ccncc4)nn23)c1	10	9	4	1	8	-4	i	-26
O=C(O)c1cc(-c2ccccn2)n[nH]1	9	-7	0	-1	6	-5	i	-20
O=C(Nc1ccccc1C(=O)O)c1ccc(NC(=O)C2CCCO2)cc1 (stereo unspecified)	-2	-5	1	0	1	-1	i	-15
CCCC(=O)NC(c1ccc(OC)cc1)c1c(O)ccc2ccccc12 (stereo unspecified)	-7	50	-4	-16	-3	-6	i	1
CCC1C(=O)c2ccccc2N(C)C1=O (stereo unspecified)	-2	-4	0	6	-5	-3	i	x
COc1cc2c(cc1NC(=O)CCCN1C(=O)CCC1=O)oc1ccccc12	12	-3	8	6	x	-21	i	6
Nc1ccc(S(=O)(=O)N2CCCC2)cc1Cl	0	-6	2	6	5	-8	i	x
CCC(C)NC(=O)CC(NS(=O)(=O)c1ccc(Cl)cc1)c1ccco1 (stereo unspecified)	3	-3	-1	-3	x	0	i	-19
O=C1N/C(=C/c2cccn2-c2ccc(F)cc2)C(=O)N1Cc1ccccc1F	-4	5	5	-7	x	-6	i	x
CC1(C(=O)O)CCN1C(=O)/C=C/c1ccccc1 (stereo unspecified)	x	x	3	6	-4	x	x	-15
CC(=O)NC1(C(F)(F)F)NC(=O)N(c2ccc(F)cc2)C1=O (stereo unspecified)	3	-5	4	4	-84	4	i	-17

(further entries)
SMILES	PABP polyA inh	CSC inhib	MT1-MMP act inh	MT1-MMP act inh RFP	Env fusion inh	eIF4H FP inh	Rce1 inhib	Yeast UUG start
Cc1cnc(NC(=O)Cc2ccc(Br)cc2)s1	-12	-8	-4	1	-8	-2	i	-12
NC(=O)CC(NC(=O)Cc1ccc(Cl)cc1)c1ccc(NCc2ccccc2)c([N+](=O)[O-])c1 (stereo unspecified)	-4	2	7	2	-1	-4	i	-15
CNC(=O)COC(=O)c1ccccc1Oc1ccccc1	2	-1	-10	-5	-7	4	i	4
O=C(CSc1nnc(-c2cccnc2)n1Cc1ccccc1)NCc1ccccc1	7	-6	-1	0	-27	-8	i	-14
COc1ccc(OC)c(/C=N/NC(=O)c2nnn(-c3nonc3N)c2-c2cccs2)c1	8	-19	0	4	5	1	i	1
CN(C(=O)c1cc(COc2ccc(F)cc2Cl)on1)C1CCOC1 (stereo unspecified)	x	x	0	2	-6	x	x	-13
O=C(CN1C(=O)NC(CCc2ccccc2)C1=O)Nc1ccc(F)c(F)c1F (stereo unspecified)	x	-19	3	1	x	x	x	-11
O=C(CSc1c2c(nc3ccccc13)CCCC2)NCc1ccco1	-13	6	2	1	0	6	i	x
O=C(O)CS(=O)CC(=O)NCc1cccc(C(F)(F)F)c1 (stereo unspecified)	4	-4	-7	-2	-1	-3	i	x
Cc1cc(C)c(C#N)c(SCCN2CCCCC2)n1	11	4	3	4	0	-2	i	-23
COc1ccc(Cc2nc3ccc(C(=O)N4CCC(N(C)C)C4)cc3o2)cc1 (stereo unspecified)	2	28	0	2	-35	2	i	-9
COC(=O)CSc1nnc(-c2cccnc2)n1C	-8	-2	x	x	0	6	i	x
Cc1oc(-c2ccc3c(c2)OCCO3)cc1C(=O)NCC(=O)O	6	7	0	0	-12	-2	i	-54
CCSc1nnc(Cn2c(=O)sc3ccccc32)n1-c1ccc(OC)cc1	-3	-4	-1	-2	6	-1	i	-8
COCCc1nnc(NC(=O)Cc2ccccc2)s1	-4	1	0	1	x	-6	i	-20
COc1ccc(C(=O)NCCOC(C)C)cc1OC1CCN(C(C)=O)CC1	-11	-7	-4	1	10	-3	i	-8
CCCCCCCCCCCCN1[C@@H](CC(C)=O)c2cc(F)cc(F)c2S1(=O)=O	x	55	3	-11	u	x	i	-2
